Screening data as filed in PubChem.
GLA inh pH 4.5 – inhibitors of human alpha-galactosidase A at pH 4.5; P06280; purified enzyme, 4-MU-alpha-Gal fluorescence, pH 4.5; activity change, negative = inhibition, % at 105 µM; 230,000 tested, under 10 active; AID 1467; inconclusive = small, poorly fitted or top-dose-only inhibition, or a rising curve; inactive = flat fitted curve, though single readings scatter; no compound was filed as active;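 note: 0% = full activity with enzyme and -100% = basal without enzyme; dose as in the result columns while the protocol names 77 µM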
Target sequence (P06280 whole entry, looked up): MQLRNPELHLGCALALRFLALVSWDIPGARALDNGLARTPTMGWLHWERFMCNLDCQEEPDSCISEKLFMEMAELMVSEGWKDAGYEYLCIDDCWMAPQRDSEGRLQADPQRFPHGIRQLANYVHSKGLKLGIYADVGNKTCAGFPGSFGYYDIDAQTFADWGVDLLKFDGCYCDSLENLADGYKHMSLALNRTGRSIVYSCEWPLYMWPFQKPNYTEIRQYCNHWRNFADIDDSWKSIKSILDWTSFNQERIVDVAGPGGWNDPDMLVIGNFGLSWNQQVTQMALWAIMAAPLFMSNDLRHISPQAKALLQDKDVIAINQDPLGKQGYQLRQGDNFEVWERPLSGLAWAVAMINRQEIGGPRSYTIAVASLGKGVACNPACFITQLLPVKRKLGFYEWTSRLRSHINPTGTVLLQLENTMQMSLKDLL
Rango-impB inh – Rango-importin beta binding inhibition. Q14974. Rango CFP/YFP FRET sensor + importin beta, 45 min. Potency, µM (series often up to 92.2 µM), for the others: at the top dose inhibition of complex formation. actives 0.031% (n = 340,000); active = rising FRET ratio curve, often small or poorly fitted; inconclusive = mostly compound fluorescence or quenching in the first reads; inactive = flat curves in all reads;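 note: potency is the fitted concentration of half-maximal effect; 0% = DMSO wells and 100% = buffer wells lacking importin beta; nearly all actives have a fitted effect of over 15% in size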
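Inhibition scored from the CFP 486 nm/YFP 530 nm FRET ratio 45 min after adding 0.125 microM importin beta to 50 nM Rango biosensor preincubated 5 min with compound (room temperature, PBS with DTT, Tween-20, BSA). No-importin wells as positive control.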
Rango release inh – inhibitors of RanGTP-induced Rango-importin beta complex dissociation; Potency, µM (highest dose often 46.1 µM), for the others: top-dose activity change, negative = inhibition; Biochemical FRET Rango-importin beta, RanGTP-induced dissociation; AID 540253; actives 0.071% (n = 340,000); O95149+P62826; active means falling FRET ratio curve, often poorly fitted, with flat reads before Ran was added; inconclusive means other falling curves, or compound fluorescence or quenching; inactive means flat or rising ratio curve;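 note: potency is the fitted concentration of half-maximal effect; % of control where 0% means no effect; nearly all actives have a fitted effect of over 45% in size; -100% = wells without RanGTP and RCC1; the record marks most hits as doubtful in a second field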
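FRET read at 45 min, room temperature: inhibitors block the CFP/YFP signal rise when RanGTP (0.6 uM Ran, 2 mM GTP, 0.2 uM RCC1) frees Rango (0.1 uM) from importin beta (0.25 uM). Pre-read after 5 min compound exposure flags interference.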
miR-21 FLuc – miR-21 reporter, rising signal | HeLa miR-21 FLuc reporter, luciferase, 48 h | Potency, µM (titrated, usually from 38.3 µM), without a hit: at the highest dose reporter change, positive = more light | 340,000 tested, under 10 active; active = well fitted rising curve with a large enough effect; inconclusive = small, poorly fitted or top-dose-only effect; inactive = no such curve, though single readings can be large or run the other way;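 note: % of control where 0% means no effect; miR-21 action dims this reporter so a rising signal means less miR-21 action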
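HeLa miR-21-FLuc reporter line, endogenous miR-21; 2000 cells/well in DMEM/10% FBS; compound titration up to ~40uM final, 48 h, 37 degree Celsius; luciferase detection reagent, 15 min lysis, CCD luminescence.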
* = called active by the depositor; ? = inconclusive; / = not tested or not shown; & = joins results of further samples. These rows are one share of the data; the hit share may differ from the screen's.

GLA inh pH 4.5 | Rango-impB inh | Rango release inh | miR-21 FLuc | structure
/ | -4.6% | 10% | -55% | COc1ccc(CC(=O)c2ccc(OC3OC(CO)C(O)C(O)C3O)cc2O)cc1 (centres undefined)
/ | 2.3% | 7% | / | CN(Cc1nc(-c2ccccc2)no1)C(=O)c1ccc2c(c1)OCO2
0 | 1.1% | 10% | 19% | CC1(c2ccc(Cl)cc2Cl)OCC(Cn2ccnc2)O1 (centres undefined)
/ | -1.6% | 9% | 6% | O=C(CCNS(=O)(=O)c1cccs1)N1CCN(c2cccc(Cl)c2)CC1
/ | 3.7% | 14% | / | F[B-](F)(F)c1cc2ccccc2s1
/ | ? | -8% | / | CCN(C(=O)COC(=O)c1oc2ccc(OC)cc2c1C)C1CCCCC1
3 | 0.2% | 5% | 0% | COc1ccc(N2CC(C(=O)OC(C)C(=O)c3ccccc3)CC2=O)cc1 (centres undefined)
/ | 2.4% | -5% | 0% | Cc1ccc(S(=O)(=O)Cn2nnnc2C(CC(C)C)N2CCC(C(N)=O)CC2)cc1 (centres undefined)
4 | 4.4% | -2% | -12% | Cc1nnc(Cl)c2nn(-c3ccccc3F)c(C)c12
/ | 4.4% | 29% | / | COc1cc2c(cc1OC)[C@@H](NC(=O)C(C)C)[C@H](OCc1ccccc1)C2
/ | 0.9% | 9% | 0% | CC(C)c1ccc(N(C(=O)c2ccco2)C(C(=O)NC2CCCC2)c2cccnc2)cc1 (centres undefined)
-10 | 5.2% | 7% | 17% | Cc1c(C(=O)Nc2ccc(-c3nnc4n3CCCCC4)cc2)oc2c1ccc1ccccc12
/ | 3.6% | 4% | / | NC1=NN(c2ccccc2)C(=O)C1
/ | 2.2% | -23% | -1% | CCOc1ccc(NC(=O)CC(Cc2ccc(Cl)cc2)C(=O)O)cc1 (centres undefined)
-4 | 1.6% | -6% | -1% | O=C(CSc1ncccn1)N1CCN(C(c2ccccc2)c2ccccc2)CC1
/ | -2.7% | -16% | -51% | COCCN(C(=O)Nc1ccc(F)cc1F)c1nc2ccccc2s1
1 | / | / | -24% | CN(C)C=Nc1ccccc1C1C=NNC1=O (centres undefined)
/ | -0.9% | -13% | / | COc1ccc(C(=O)NCCCn2nc(C)cc2C)cc1S(=O)(=O)N1CCOCC1
0 | 0.2% | 18% | -6% | COc1ccccc1Cn1c(CO)nc2ccccc21
1 | 10% | 1% | 0% | NC1=NC[C@H](Cc2ccc(O)cc2)N1CCc1cccc(F)c1
2 | 1.4% | 0% | 5%&-2% | CCS(=O)(=O)NCC(c1ccco1)N1CCN(c2ccc(F)cc2)CC1 (centres undefined)
-13 | 1.1% | -21% | -44% | O=C(Cc1ccccc1)n1nc(-c2ccccc2)nc1NCc1ccco1
6 | 2.7% | -15% | 0% | O=C(c1cccc(F)c1)N1CCN(C(=O)c2nn3cccnc3c2Cl)CC1
/ | -2.0% | -10% | / | CC(C)(C)NC(=O)COc1coc(CN2CCN(C(=O)c3ccco3)CC2)cc1=O
6 | 2.4% | 27% | 12% | Cc1ccc(S(=O)(=O)N2CCOC2CNC(=O)C(=O)NCCc2ccc(S(N)(=O)=O)cc2)cc1 (centres undefined)
-3 | 1.9% | 4% | 4% | Cc1ccc(C(C[N+](=O)[O-])n2nc(C)cc2C)cc1 (centres undefined)
/ | 3.2% | ? | 1% | Cc1ccc(S(=O)(=O)N2CCC(C(=O)N3CCCC3C(=O)N[C@@H](CC(C)C)C(=O)NCC(N)=O)CC2)cc1 (some centres undefined)
/ | 6.6% | 3% | -25% | COc1cccc(-c2cc(C(=O)NCC3CCCO3)c3cc(C)cc(C)c3n2)c1 (centres undefined)
4 | 5.4% | 0% | -18% | CCn1c(-c2cccnc2Cl)nc2cc(C)c(C)cc21
/ | 0.9% | -8% | / | O=C1OC[C@H](Cc2ccc3c(c2)OCO3)/C1=C\c1ccc2c(c1)OCO2

One compound at a time, as listed above.
Shown for COc1cccc(-c2cc(C(=O)NCC3CCCO3)c3cc(C)cc(C)c3n2)c1 (centres undefined) : GLA inh pH 4.5 = /; Rango-impB inh = 6.6%; Rango release inh = 3%; miR-21 FLuc = -25%
Shown for O=C1OC[C@H](Cc2ccc3c(c2)OCO3)/C1=C\c1ccc2c(c1)OCO2 : GLA inh pH 4.5 = /; Rango-impB inh = 0.9%; Rango release inh = -8%; miR-21 FLuc = /

(cont.)
GLA inh pH 4.5 | Rango-impB inh | Rango release inh | miR-21 FLuc | structure
3 | -0.7% | -8% | -1% | CCCC(=O)Nc1ccc2c(c1)nc(CCNC(=O)c1ccco1)n2C
2 | -3.1% | 19% | -7% | Cc1c(-c2ccccc2)[n+](=O)c2c(n1[O-])CCCC2
3 | -0.7% | 15% | -10% | Fc1ccc(NC(=S)Nc2cccc(Cl)c2)cc1
-1 | 0.0% | 0% | -1% | COCc1[nH]nc2c1C(c1ccccc1OC)C(C#N)=C(N)O2 (centres undefined)
8 | / | / | -3% | CCOC(=O)N1CCN(c2ncnc3c2oc2nc(C)c4c(c23)CC(C)(C)OC4)CC1
-9 | -4.7% | -4% | -6% | CC(=O)Nc1ccc(S(=O)(=O)Nc2nc3ccc(C)cc3s2)cc1
-15 | 7.2% | 1% | 1% | N#CC(C#N)=NNc1ccc(S(=O)(=O)N2CCCCC2)cc1
? | 1.2% | -3% | -3% | Brc1ccc2nc(-c3ccncc3)c(NC3CCCC3)n2c1
-1 | / | / | -12% | Cc1[nH]c2ccccc2c1-c1nc(-c2ccc(Cl)cc2)nnc1-c1ccccc1
0 | -1.2% | 12% | 9% | O=C(c1cccc2c1-c1ccccc1/C2=N/O)N1CCCCC1
/ | 2.2% | 2% | -1%&0% | CC(CNC(=O)CCS(=O)(=O)c1ccc2c(c1)oc(=O)n2C)c1ccccc1 (centres undefined)
16 | -2.6% | -7% | -5% | COC(=O)c1sc2nc(SCc3cccc(F)c3)n(N)c(=O)c2c1C
0 | -0.3% | -5% | 3% | Cc1ccc(-c2nc(-c3cccnc3)sc2CC(=O)O)cc1
2 | -4.5% | 7% | 6% | Cc1cc(C)nc(N2CCCC(C(=O)Nc3nc4ccc(S(C)(=O)=O)cc4s3)C2)n1 (centres undefined)
-3 | -2.0% | 5% | -5% | CCC(C)c1ccc(S(=O)(=O)N2CCN(C(C)CC(=O)O)CC2)cc1 (centres undefined)
1 | 1.0% | 16% | 2% | CC1CN(C(=O)COC(=O)c2ccc(N(C)C)cc2)CC(C)O1 (centres undefined)
6 | -1.5% | -5% | 0% | Cc1nc2nc[nH]n2c(=O)c1NS(=O)(=O)c1ccc([N+](=O)[O-])cc1
2 | -0.6% | 1% | -1% | O=C(Nc1ccccc1N1CCOCC1)c1ccc(S(=O)(=O)NCc2ccco2)cc1
/ | 2.5% | 10% | -1% | Cc1ccc(NC2CCCN(C(=O)c3ccoc3C)C2)cc1C (centres undefined)
8 | -1.2% | -10% | -21% | C/C(CC(=O)Nc1cc(C)ccn1)=N\NC(=O)c1ccccc1C
-30 | 0.4% | -1% | -37% | Cc1ccc(CC(=O)Nc2ncc([N+](=O)[O-])s2)cc1
/ | 7.2% | -7% | -1% | CCCn1c(C(C)Nc2nc(-c3ccc(C)cc3)cs2)nc2cc(Cl)c(N3CCCCC3)cc21 (centres undefined)
9 | -3.3% | 10% | -4% | O=S(=O)(NC1CCCCC1)c1ccc(Br)cc1
-3 | -1.1% | 1% | 12% | C=CCN(CC=C)C(=S)NC(=O)c1ccc(-c2ccccc2)cc1
/ | -0.2% | 1% | 3% | O=C1c2cccnc2C(=O)N1Cc1ccc(S(=O)(=O)N2CCOc3ccc(Cl)cc32)cc1
-9 | -3.0% | -10% | -2% | CCOC(=O)c1c(CN(C)C)n(-c2ccc(C)cc2)c2cc(Br)c(O)cc12
/ | 2.6% | -6% | 1% | Cc1ccc(C)c(N(C(=O)CNC(=O)c2ccco2)C(C(=O)NC2CCCCC2)c2ccncc2)c1 (centres undefined)
/ | 3.8% | 17% | 2% | CCC(C)(C)NC(=O)C1CC(=O)N(CCc2ccc(F)cc2)C1 (centres undefined)
6 | 1.4% | 7% | -51% | c1ccc(Cn2ccnc2-c2ccco2)cc1
2 | -2.1% | 9% | 1% | CC(C)C(=O)NC(C)C(c1cccs1)N1CCN(c2ccccc2)CC1 (centres undefined)

3 compounds picked at random from the list so far:
GLA inh pH 4.5 | Rango-impB inh | Rango release inh | miR-21 FLuc | structure
/ | 2.2% | -23% | -1% | CCOc1ccc(NC(=O)CC(Cc2ccc(Cl)cc2)C(=O)O)cc1 (centres undefined)
/ | 0.9% | 9% | 0% | CC(C)c1ccc(N(C(=O)c2ccco2)C(C(=O)NC2CCCC2)c2cccnc2)cc1 (centres undefined)
/ | 3.8% | 17% | 2% | CCC(C)(C)NC(=O)C1CC(=O)N(CCc2ccc(F)cc2)C1 (centres undefined)

Additional compounds:
GLA inh pH 4.5 | Rango-impB inh | Rango release inh | miR-21 FLuc | structure
-13 | -0.1% | 16% | 0% | Nc1nc(-c2cccc(F)c2)cs1
6 | -3.1% | 1% | -1% | CCOC(=O)c1c(NC(=O)Cn2cc([N+](=O)[O-])cn2)sc2c1CCC2
/ | 1.4% | 35% | -1% | COc1cc(/C=N/NC(=O)c2cc[n+]([O-])cc2)ccc1O
-8 | 3.1% | -1% | -13% | CC(=O)Nc1cccc(NC(=O)Nc2ccc(C(C)=O)cc2)c1
-4 | / | / | -5% | Cc1nnc2n(C3CCCCC3)c(=O)c3c4c(sc3n12)CCC4
7 | 1.0% | 0% | -40% | O=c1[nH]c2ccccc2cc1-c1nnn(-c2ccc(F)cc2)n1
/ | 1.1% | 2% | / | C[C@H](CO)N1C[C@H](C)[C@@H](CN(C)S(=O)(=O)c2cccs2)Oc2ccc(NC(=O)Cn3cnnn3)cc2C1=O
/ | -0.5% | 4% | / | O=C(C1CCN(S(=O)(=O)c2ccccc2F)CC1)N1CCc2ccccc21
-8 | 4.5% | 3% | 3% | CC(C)(C)C(=O)Nc1cc(NC(=O)C(C)(C)C)cc(C(=O)Nc2cc(C(=O)O)cc(C(=O)O)c2)c1
-2 | -2.4% | -11% | -18% | CCOC(=O)c1ccc(NC(=S)N(CCN2CCCCCC2)Cc2ccco2)cc1
1 | ? | ? | -3% | Cc1cccn2c(=O)c(/C=C(\C#N)C(=O)NC3CCS(=O)(=O)C3)c(N3CC(C)OC(C)C3)nc12 (centres undefined)
/ | ? | ? | / | O=[n+]1c2c(n([O-])c3cc(F)c(N4CCCC4)cc31)CCC2
-2 | -0.9% | 3% | -1% | Cc1ccc(S(=O)(=O)N2CCC(C(=O)NCCc3ccccn3)CC2)cc1
-7 | -0.8% | 0% | -52% | COc1ccc(C2=NNC(c3cccs3)=Nc3ccc(OC)cc32)cc1
/ | -4.2% | 17% | / | Cc1ccc(C)c(NC(=O)CSc2nc(C)cs2)c1
/ | 0.3% | 5% | / | CC(C)NC(=O)N(C)C[C@H]1Oc2c(cccc2N(C)C)C(=O)N([C@H](C)CO)C[C@@H]1C
/ | -3.4% | 5% | 3% | CCOC(=O)Nc1ccc2c(c1)N(C(=O)CN(CC)CC)c1ccccc1CC2
/ | -3.0% | -8% | / | CCOC(=O)c1cc(C(=O)NNC(=O)c2cccc([N+](=O)[O-])c2)c(C)nc1C
6 | -1.1% | -2% | 0% | COC(=O)C1=C(N)Oc2cc(C)n(CC3CCCO3)c(=O)c2C1c1ccccc1OC (centres undefined)
/ | 1.5% | 6% | / | O=C(COC(=O)CCC(=O)c1cccs1)NCCc1ccccc1
/ | -0.5% | 2% | -3% | CCN(Cc1cc(=O)oc2cc(C)ccc12)c1ccccc1
2 | 0.7% | -5% | 21% | O=C(CN1c2ccccc2Sc2ccccc21)NNC(=O)Nc1ccc(Cl)cc1
1 | ? | ? | -10% | CCOc1ccc2nc(NCCNC(=O)CC)c(C#N)cc2c1
0 | -1.4% | -11% | -8% | Cc1cc(=O)oc(C)c1C(=O)NCc1ccco1
/ | -1.8% | -8% | -13% | CN(C)CCN(C(=O)C1CCCCC1)c1nc2cc3c(cc2s1)OCO3
/ | -0.6% | 1% | / | O=C(CSc1ncn[nH]1)Nc1ccc(Br)cc1Br
/ | -2.1% | -5% | 1% | COCCCNC(=O)c1cc(Nc2ccc(OC)cc2OC)nc2ccccc12
